Autofluor counter – flagged as autofluorescent in microsphere protease counterscreen. hit rate 3.1% among 360,000. AID 624483. fluorescence intensity (test concentration not listed). compound autofluorescence counterscreen, microsphere flow cytometry; stronger effect = higher value;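 active = at least 3 SD above the mean of all compounds, about 16000 in these data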;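 also: 100 nL of 1 mM stock went into each well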
Numbers without * were called inactive. A portion of the library. The share of hits here may be higher or lower than overall.

SMILES	Autofluor counter
O=C(NCc1ccccc1Cl)[C@H]1CCCN1C(=O)[C@H]1CCCN1C(=O)c1ccccc1	5220
Cc1cccc(NC(=O)c2ncn3c2C(=O)NC[C@H]3C)c1	3364
N#Cc1ccc(NC(=S)N2CCC3CC2c2cc(-c4ccc5c(c4)OCO5)ccc23)cc1 (stereo unspecified)	5862
COC(=O)c1ccc(Cn2c(C)c(C(=O)NCc3cccc([N+](=O)[O-])c3)sc2=O)o1	5466
COc1ccc(C(C)(NC(C)=O)c2nc(-c3cccc(C(=O)O)c3)cs2)cc1 (stereo unspecified)	3620
CCOC(=O)[C@]12CCC=C1N(Cc1ccco1)C(=O)[C@H](CC(=O)N1CCSCC1)C2	4164
C=CCNc1nc(-c2sc(NC(=O)C(C)(C)C)nc2C)c(-n2cc(-c3ccccc3)nn2)s1	6132
COCCNc1nc(Nc2ccccc2Cl)c2sccc2n1	3822
Cc1ccc(Cc2c(C3CCCCC3)nc3ccc(C)cn23)cc1	4390
Cc1ccc(S(=O)(=O)N2C[C@H]3C(=O)C[C@@H](c4ccc(Cl)cc4)N(S(=O)(=O)c4ccc(C)cc4)[C@H]3C[C@H]2c2ccccc2)cc1	5925
COc1cccc(CNc2nc3cc(C(C)=C(C)C)sc3c(=O)n2C)c1	3898
C[C@H](CO)N1C[C@H](C)[C@H](CN(C)Cc2ccncc2)Oc2ncc(C#CC3CC3)cc2C1=O	3555
COc1cccc(CNc2nc3cc(-c4cccc(Cl)c4)sc3c(=O)n2C)c1	2739
CC(=O)Nc1cc(-c2ccc(S(C)(=O)=O)cc2)cn2c(-c3ccc(F)c(Cl)c3)cnc12	3396
CCCCCC(=O)N1C[C@@H](n2cc(C3CC3)nn2)[C@H](O)C[C@@H]1c1ccc(C)cc1	3592
O=C1NC(=S)SC1=Cc1ccccc1C(=O)O	4199
CC1(Oc2cnc(Cl)c3ccccc23)CCN(Cc2ccc(OC(F)(F)F)cc2)C1 (stereo unspecified)	8645
COc1ccc(NC(=O)N(C)C[C@@H]2OCc3cnnn3CCCC(=O)N([C@@H](C)CO)C[C@H]2C)cc1	3715
Cc1ccc(-c2csc(C(O)c3cccc(Cl)c3)n2)cc1C (stereo unspecified)	3620
CCCNC(=O)C1(C)CCN(C(=O)c2cccc(OC(F)(F)F)c2)C1 (stereo unspecified)	3422
COc1cccc(NC(=O)c2cccc(NC(=O)c3ccco3)c2)c1	3775
Cc1cc(Br)cn2c(Cc3ccccc3C(F)(F)F)c(-c3cccc(Br)c3)nc12	4532
O=C(OCc1cn([C@H]2CN(C(=O)C3CCCCC3)[C@@H](c3ccc(Cl)cc3)C[C@@H]2O)nn1)c1ccccc1	3766
CN(C)CCNc1ncnc2c1ncn2[C@H]1CN(Cc2cccs2)C[C@@H](CO)O1	2959
c1ccc(Cc2c(-c3ccco3)nc3c4ccccc4ccn23)cc1	4811
C[C@H](O)[C@@H]1CN2CCc3c([nH]c4ccc(-c5ccc6c(c5)OCO6)cc34)[C@@H]2C[C@@H]1N(C)C(=O)Nc1ccc(F)cc1	4388
CC(C)C[C@H]1CN(CCCC[C@@H]2CNC(=O)C(=O)N2CCc2ccccc2)C(=O)C(=O)N1CCC1CCCCC1	4343
OC(c1ccco1)c1nc(-c2cccs2)cs1 (stereo unspecified)	3413
Cn1ccc2c(N(Cc3ccccc3)Cc3ccccc3)cc3c(c21)C1CCC3O1 (stereo unspecified)	6005
COC(=O)N1CCCCC1c1cc(C(=O)Nc2ccc3c(c2)OCO3)no1 (stereo unspecified)	3738
OC(c1ccccc1)(c1nc(-c2ccc3c(c2)OCO3)cs1)C(F)(F)F (stereo unspecified)	3181
COc1ccc(CN2CCC2(C)C(=O)NCCNC(C)=O)c2ccccc12 (stereo unspecified)	3433
C=C1CCCC2OC(CC3=CC4/C(C)=C/CC(C)CC(/C=C(\C)C(O)C5CC(O)C(O)C(CCC(O)/C=C/C(C)=C/CCC6=NCCC(C3)C64C)O5)OC(=O)CC3OC(C(O)C1)C(O)C3O)CC(O)C2O (stereo unspecified)	5123
CC1=C(C(=O)N(C)C)CC(CC(=O)NCCN2CCOCC2)C(=O)N1Cc1ccc(C(C)(C)C)cc1 (stereo unspecified)	3806
CC(C)CC1C(=O)N(Cc2cn(Cc3ccco3)nn2)CCS(=O)(=O)N1Cc1ccc(-c2cccc(CO)c2)cc1 (stereo unspecified)	3778
O=c1onc(-c2ccccc2)n1Cc1ccc([N+](=O)[O-])cc1	2987
CCCCCCCCCC1(CC(=O)OCC)SCCN1C(N)=O (stereo unspecified)	3530
O=C(NCCc1ccccc1)c1cccc2c(-c3ccc(F)c(F)c3)coc12	3015
Cc1ccc(S(=O)(=O)N2CCC(=O)N([C@H](COCc3ccc(C(F)(F)F)cc3)C(C)C)CC2)cc1	5159
CC1=C(C(=O)N(C(C)C)C(C)C)CC(CC(=O)NCCCN(C)C)C(=O)N1Cc1ccccc1 (stereo unspecified)	5137
C[C@@H]1CN([C@H](C)CO)C(=O)c2c(c3ccccc3n2C)-c2ccccc2CO[C@H]1CN(C)Cc1ccc(-c2ccccc2)cc1	3985
CC(C)C[C@H]1CN(CCCC[C@H]2CNC(=O)C(=O)N2Cc2ccccc2)C(=O)C(=O)N1CCC1CCCCC1	5741
CNC[C@@H]1OCc2ccccc2-c2c(n(C)c3ccccc23)C(=O)N([C@H](C)CO)C[C@@H]1C	3785
CC1C(=O)N(Cc2cn(CCC3OCCCO3)nn2)CCS(=O)(=O)N1Cc1ccc(-c2ccc(Cl)nc2)cc1 (stereo unspecified)	2877
O=C(Nc1c(F)c(F)c(F)c(F)c1F)c1ccc(Br)o1	3017
OCc1ccc(-c2ccc3nccn3c2)cc1	3587
Cc1ccc(C)c(C(=O)OCC(=O)NC(=O)NCc2ccccc2)c1	3528
COc1ccc(C(C)C)cc1-c1ccc2nncn2c1	3613
COc1cc(C(O)c2nc(-c3ccc(C)c(C)c3)cs2)ccc1F (stereo unspecified)	4072
Cc1cc(F)cc(-c2cc(C(=O)NCc3cccc(Cl)c3)[nH]n2)c1	3764
Cc1ccc(S(=O)(=O)N2CC[C@H]3[C@@H](C2)C(=O)C[C@@H](c2ccccc2)N3S(=O)(=O)c2ccc(C)cc2)cc1	6277
COc1ccc(OCCNC(=O)C2(C)CCN2Cc2ccc(SC)cc2)cc1 (stereo unspecified)	3887
CCOC(=O)C1=CCN(S(=O)(=O)c2ccccc2)C1c1ccc(Cl)cc1 (stereo unspecified)	5245
O=C(NCc1ccc(F)cc1)c1cc(C2CCCCN2S(=O)(=O)c2ccccc2)on1 (stereo unspecified)	3499
CCOC(=O)C1=C[C@@H](CC)N(S(=O)(=O)c2ccc(C)cc2)[C@H]1c1cccc(Cl)c1	5659
N#Cc1cc2ccncc2c2ccccc12	3992
CCOC1=C2[C@@H](CN(S(=O)(=O)c3ccc(C)cc3)[C@H]2c2ccc(Cl)cc2)[C@H]2C(=O)N(c3ccccc3)C(=O)[C@H]2C1	5835
Nn1cnc2c(ncn2C2OC(CO)C(O)C2O)c1=O (stereo unspecified)	5757
COc1ccc(S(=O)(=O)N(C)C[C@H]2OCc3cn(nn3)CCCC(=O)N([C@H](C)CO)C[C@@H]2C)cc1	2932
COc1cccc(CN2CCC(C(=O)NC(c3ccc4c(c3)OCO4)c3ccccn3)CC2)c1 (stereo unspecified)	3795

Later entries.
SMILES	Autofluor counter
CCOC(=O)C1CC(=NO)c2ccc(OC)c(OC)c2C1 (stereo unspecified)	3557
CC(C)CC1C(=O)N(Cc2cn(CC3CCCCC3)nn2)CCS(=O)(=O)N1Cc1ccc(-c2ccc(F)nc2)cc1 (stereo unspecified)	3656
CC1(Cc2ccc(Cl)cc2)C(=O)Nc2c(Cl)cccc21 (stereo unspecified)	3510
CCOc1ccc(CCN2C(=O)C(=O)N([C@@H](Cc3ccc(O)cc3)CN3CCC[C@H]3CN3C(=O)C(=O)NC[C@@H]3Cc3ccc(O)cc3)C[C@@H]2Cc2ccc(O)cc2)cc1	5818
C(=NNc1ccc2ccccc2n1)c1ccccn1	5722
Cc1ccc(NC(=O)N2CCOCC2)cc1NC(=O)N1CCOCC1	3770
O=S(=O)(c1ccccc1)n1cc(-c2cccc3nccn23)c2ccccc21	4018
COc1ccc(NC(=O)C2(C)CCN2Cc2ccccc2Cl)cc1OC (stereo unspecified)	2937
O=C(Nc1ccc2c(c1)OCCO2)C1c2ccccc2OCC(=O)N1CC(F)(F)F (stereo unspecified)	4228
CCN(CC)C(=O)c1cccc(-c2csc(C(C)(O)c3ccccc3)n2)c1 (stereo unspecified)	4534
COc1ccc(OC(F)(F)F)cc1CC1(C)C(=O)Nc2c(Cl)ccc(Cl)c21 (stereo unspecified)	3696
CCOC(=O)N(C)c1c(CC)nc2c(OCc3ccccc3C)cccn12	3632

Reformatted with bars between the fields: part of the list above
SMILES | Autofluor counter
COc1ccc(S(=O)(=O)N(C)C[C@H]2OCc3cn(nn3)CCCC(=O)N([C@H](C)CO)C[C@@H]2C)cc1 | 2932
COc1cccc(CN2CCC(C(=O)NC(c3ccc4c(c3)OCO4)c3ccccn3)CC2)c1 (stereo unspecified) | 3795
CCOC(=O)C1CC(=NO)c2ccc(OC)c(OC)c2C1 (stereo unspecified) | 3557
CC(C)CC1C(=O)N(Cc2cn(CC3CCCCC3)nn2)CCS(=O)(=O)N1Cc1ccc(-c2ccc(F)nc2)cc1 (stereo unspecified) | 3656
CC1(Cc2ccc(Cl)cc2)C(=O)Nc2c(Cl)cccc21 (stereo unspecified) | 3510
CCOc1ccc(CCN2C(=O)C(=O)N([C@@H](Cc3ccc(O)cc3)CN3CCC[C@H]3CN3C(=O)C(=O)NC[C@@H]3Cc3ccc(O)cc3)C[C@@H]2Cc2ccc(O)cc2)cc1 | 5818
C(=NNc1ccc2ccccc2n1)c1ccccn1 | 5722
Cc1ccc(NC(=O)N2CCOCC2)cc1NC(=O)N1CCOCC1 | 3770
O=S(=O)(c1ccccc1)n1cc(-c2cccc3nccn23)c2ccccc21 | 4018
COc1ccc(NC(=O)C2(C)CCN2Cc2ccccc2Cl)cc1OC (stereo unspecified) | 2937
O=C(Nc1ccc2c(c1)OCCO2)C1c2ccccc2OCC(=O)N1CC(F)(F)F (stereo unspecified) | 4228
CCN(CC)C(=O)c1cccc(-c2csc(C(C)(O)c3ccccc3)n2)c1 (stereo unspecified) | 4534
COc1ccc(OC(F)(F)F)cc1CC1(C)C(=O)Nc2c(Cl)ccc(Cl)c21 (stereo unspecified) | 3696
CCOC(=O)N(C)c1c(CC)nc2c(OCc3ccccc3C)cccn12 | 3632

(further entries)
SMILES	Autofluor counter
CC(C)c1cc(C(F)(F)F)nc(NNc2nc(C(C)C)cc(C(F)(F)F)n2)n1	3496
CCNC(=O)C1(C)CCCN(Cc2ccc(-c3ccccn3)cc2)C1 (stereo unspecified)	3668
CC1(C(=O)NCc2ccc3c(c2)OCO3)CCN1CCc1ccccc1 (stereo unspecified)	3940
C[C@H]1CCCCO[C@H](CN(C)C(=O)C2CCCCC2)[C@@H](C)CN([C@@H](C)CO)C(=O)c2cc(NC(=O)NC3CCCCC3)ccc2O1	3532
O=C(C(=Cc1ccc(O)cc1)c1ccccc1)c1ccccc1	6157
CC1=C(C(=O)N2CCCCCC2)CC(CC(=O)NCCN2CCOCC2)C(=O)N1Cc1ccc(F)cc1 (stereo unspecified)	6338
OC(c1ccc(F)c(F)c1)c1nc(-c2cccc(F)c2)cs1 (stereo unspecified)	4602
CC(C)OC(=O)N(C)C[C@@H]1OCc2cnnn2CCCC(=O)N([C@H](C)CO)C[C@@H]1C	3506
Cc1cc2nc(-c3ccc(Cl)cc3)c(Cc3cccc(Cl)c3)n2c(C)c1Br	6182
O=C(c1[nH]c(C(F)(F)F)nc1-c1ccccc1)N1CCC(C(O)(c2ccccc2)c2ccccc2)CC1	5666
COc1cc(C(=O)N2C[C@H]3CON(C)[C@H]3C[C@H]2c2ccc(N3CCCCC3)cc2)cc(OC)c1OC	7297
COc1ccc(Br)c(Cn2c(C)c(C(=O)NCc3ccc(F)cc3)sc2=O)c1	5619
Cc1ccc(-c2nn3c(-c4ccccc4)nnc3o2)cc1	2868
O=C(NCCN1CCC(n2c(=O)[nH]c3ccccc32)CC1)c1ccc(F)cc1	6352
CCOc1ccc(-c2noc(-c3csc([C@@H]4C[C@H](O)[C@@H](CO)O4)n3)n2)cc1	3474
CCc1nc2ccc(C(=O)N(C)CCN(C)C)cn2c1N(C)Cc1cc2ccccc2s1	4240
O=C(NCc1ccncc1)[C@@H]1CCCN1C(=O)[C@@H]1CCCN1C(=O)c1ccccc1	5594
O=C(/C=C/[C@H]1O[C@@H](n2cnc3c(NC(=O)c4ccccc4)ncnc32)[C@H](O)[C@@H]1O)NCCc1c[nH]c2ccccc12	6126
CCOC(=O)c1ccc(NC(=O)NC2=NCCS2)cc1	2939
CC(C)(C)c1nnc(NC(=O)CCC2CCCCC2)s1	3708
Clc1cccc(-c2nc3ccc(Br)cn3c2Cc2ccsc2)c1	9227
Cc1cnc(CNC(=O)c2ccc3nc([C@@H]4O[C@H](CO)[C@H](O)[C@H](O)[C@H]4O)[nH]c3c2)cn1	3724
C[C@@H]1CN([C@@H](C)CO)C(=O)c2cc(Br)cnc2O[C@H]1CN(C)C(=O)c1ccccc1F	3962
C[C@@H]1CN([C@@H](C)CO)C(=O)CCCn2nncc2CO[C@H]1CN(C)S(=O)(=O)c1cccc(F)c1	3485
COc1ccccc1-c1cc(NC=O)c2ncc(-c3ccc(F)cc3)n2c1	3897
Cc1ccccc1-c1cc2nc(NCc3cccnc3)n(C)c(=O)c2s1	3740
CC(C)(C)c1ccc(CC(=O)N2CCC2(C)C(=O)NCc2cccs2)cc1 (stereo unspecified)	3358
Cn1c(NCc2ccncc2)nc2cc(-c3ccsc3)sc2c1=O	3001
Cn1c(=O)c2cc(NC(=O)NCc3ccccc3)ccc2n1Cc1cccc(C(F)(F)F)c1	2974
Cc1ccc2ccccc2c1C(O)c1ncc(-c2cccc(F)c2)[nH]1 (stereo unspecified)	2945
Cc1cc(C)c(NC(=S)NC(=O)c2ccccc2)cc1C	2966
CCOC(=O)[C@]12CCC=C1N(Cc1ccco1)C(=O)[C@H](CC(=O)NCC13CC4CC(CC(C4)C1)C3)C2	5654
CC(=CCOc1ccc2ccc(=O)oc2c1)C1=CC(=O)C(C)(C)O1	3810
C[C@H](CO)N1C[C@H](C)[C@@H](CN(C)Cc2cccc(C(F)(F)F)c2)OCc2cnnn2CCCC1=O	3496
CCc1nc2ccc(C(=O)NCCCn3ccnc3)cn2c1N(C)C(=O)c1cccc(OC)c1	3670

Source: PubChem BioAssay
